Ab BasE inh = inhibitors of Acinetobacter baumannii siderophore enzyme BasE; purified BasE, fluorescence polarization binding displacement; inhibition, % (concentration not given with the values); 0.1% of 84,000 active; AID 485350;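 active = both replicates above 25% with normal brightness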;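 note: 0% = negative plate control signal and 100% = positive plate control signal; stock transfer was 100 nL into about 30 µL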
KSHV LANA nucl = LANA-nucleosome interaction inhibition; AID 720717; FITC-LANA1-23 / chicken nucleosome fluorescence polarization; active compounds read low; z-score (test concentration not listed); 0.3% of 51,000 active;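 active = both repeat wells score below -2 in polarization z-score versus plate sample wells, excluding overly bright wells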;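 note: 100 nL library stock added to about 30 µL; numbers are from one replicate; some results filed as inactive read as strong as hits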
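System – purified chicken nucleosomes with FITC-labelled LANA N-terminal peptide (1-23) · Amount – 240 nM purified chicken nucleosomes (480 nM peptide binding sites), final · Also added – 50 nM FITC-LANA1-23 probe · Medium – TEN-BT buffer, pH 7.5 · Incubation – compound with peptide–nucleosome mix 10–45 min at room temperature · Detection – fluorescence polarization, ex 480 nm, em 535 nm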
* hit, by the source's call; / = not tested or not shown; & = joins results of further samples. Not all compounds are listed (hit frequency here may not be typical).

SMILES	Ab BasE inh	KSHV LANA nucl
Cc1nc(SC2CCCCN(C(=O)c3ccc(Cl)cc3)C2=O)c2c3c(sc2n1)CCCC3 (configuration not stated)	0.9	/
CCN(CCS(=O)(=O)c1ccccc1)S(=O)(=O)c1ccc(C)cc1	-2.0	/
CC(C)c1ccc(NN2C(=O)CC(c3ccccc3)C2=O)cc1 (configuration not stated)	0.9	/
COc1ccccc1NC(=O)Nc1ccccc1	1.6	-0.34
COc1ccccc1C(=O)NCC(=O)O	2.3	-0.255
C=CCNC(=O)Cn1nc(-c2ccccc2F)ccc1=O	0.7	-1.24
CCN(CC)C(=O)COc1ccc(-c2nnc(Nc3ccc(OC)c(C(N)=O)c3)c3ccccc23)cc1	-36.3	/
O=C(Nc1ccc(OC(F)(F)F)cc1)NC1CCN(c2nccc(C(F)(F)F)n2)CC1	1.0	/
Cc1cc(-c2ccc(S(=O)(=O)N3CCc4ccccc4C3)s2)n[nH]1	-0.7	-0.36
COC(C(=O)Nc1ccc2c(c1)OCO2)c1ccccc1 (configuration not stated)	0.6	-0.144
O=C(COc1ccc(-n2cnnn2)cc1)NCCc1ccc(F)cc1	-2.5	/
Cc1cc(=O)oc2cc(OCC(=O)OCc3cn4cc(Cl)ccc4n3)ccc12	-3.0	/
CCOC(=O)CSc1nc2cccnc2s1	-2.4	/
CCOC(=O)c1c(/C=C/C(=O)O)c(C)n(CC)c1C	4.1	/
O=S(Cc1cc(Sc2ccccc2)nc(-c2ccccc2)n1)c1ccccc1 (configuration not stated)	/	-0.356
O=C(c1cn[nH]c1)c1cc(Cl)cc(Cl)c1O	-1.7	/
COC(=O)c1cc2cc(Br)ccc2oc1=O	1.5	/
COc1ccc(Nc2cc(C(F)(F)F)ccc2Cl)c(C(=O)O)c1	0.8	/
O=C(CSc1nc2c(c(=O)n1-c1ccccc1)SCC2)N1CCCC1	-1.2	1.49
Cc1ccc2cc3c(=O)n(C)c(=O)n(C)c3nc2c1	1.0	0.143
CN1CCN(C(C#N)c2ccc(O)cc2)CC1 (configuration not stated)	-0.4	/
O=C(CCN1CCN(C(c2ccccc2)c2ccccc2)CC1)N/N=C/c1ccc(O)cc1O	0.6	-1.27
O=C(O)CCNC(=O)c1ccc(Br)o1	-1.1	-1.46
Cc1ccc(C(=O)NCC2COc3ccccc3O2)o1 (configuration not stated)	-2.3	/
Cc1ccc(Cn2cccc(NS(C)(=O)=O)c2=O)cc1	-0.2	1.19
N#Cc1ccc(COC(=O)c2cncn2-c2ccc(F)cc2)cc1	2.2	/
CCN(CC)S(=O)(=O)c1ccc2c(c1)nc(SCC(=O)N1CCOCC1)n2-c1ccccc1OC	0.9	/
COc1cccc(/C=N/NC(=O)CSCc2ccccc2)c1O	-0.3	-0.835
Cn1c(NC(=O)c2ccccc2)nc2ccccc21	6.0	-0.866
CN=c1scc(-c2ccccc2OC)n1/N=C/c1ccc[nH]1	1.7	/
CC1CC(C)(C)NC(=O)O1 (configuration not stated)	1.4	-0.672
CCN(CC)C(=O)c1cc2cccnc2n(Cc2ccccc2)c1=O	1.1	-0.46
O=C(NNc1ncnc2ccccc12)c1ccc(O)cc1	8.7	/
Cc1ccc(-c2cc(C(=O)N3CCC4(CC3)OCCO4)c3ccccc3n2)o1	4.8	-0.591
Cc1cccc(NC(=O)c2cc3ccc(O)cc3oc2=O)c1	3.3	-0.427
COc1cc(NC(=O)NCCN2CCCc3ccccc32)cc(OC)c1OC	1.0	0.685
O/N=C/c1ncc(C(F)(F)F)cc1Cl	/	0.373
O=C(CSc1ccc(-c2ccccc2)nn1)NCC1CCCO1 (configuration not stated)	0.3	0.0465
FC(F)(F)c1cccc(N2CCN(C3CCCCCC3)CC2)c1	-1.3	-1.13
S=C(NCCN1CCCCC1)NCC1CCCO1 (configuration not stated)	-0.6	0.001
CC1CC(C)CN(S(=O)(=O)c2ccc(NN)nc2)C1 (configuration not stated)	-0.5	/
Cc1noc(C)c1C(=O)NCCCc1ccccc1	0.4	-0.0925
O=C(NC(=S)Nn1cnnc1)C1CCCCC1	-1.4	/
CC(C)OC(=O)CSc1nc2cccnc2n1C1CCCCC1	-1.8	-0.039
OC1(C#CCN2CCOCC2)CCCCC1	2.4	-0.596
COc1ccc(/C=C2\C(=O)c3ccccc3OC2c2ccccc2)cc1 (configuration not stated)	1.4	/
CC(C)(C)C(=O)Nc1ccc(Cc2ccncc2)cc1	9.0	-0.238
COC(=O)C(=Cc1ccc(-c2ccsc2C(=O)OC)o1)C(=O)OC	0.3	-0.0425
C/C=C(\C(C)=N\O)c1ccccc1	-0.5	/
CC(C(=O)c1ccccc1)[n+]1cccc(Br)c1 (configuration not stated)	-0.2	/
C[C@H]1O[C@H](O[C@H]2[C@H](O)[C@@H](O)[C@@H](O[C@H]3[C@H](O)[C@@H](O)C(O)O[C@@H]3CO)O[C@@H]2CO)[C@H](O)[C@@H](O)[C@@H]1N[C@H]1C=C(CO)[C@@H](O)[C@H](O)[C@H]1O (some centres not stated)	/	0.332&0.01
CC(=O)Nc1ccc(S(=O)(=O)N2CC(C)OC(C)C2)cc1 (configuration not stated)	0.1	/
O=C(O)COc1ccc(/C=C2/NC(=O)N(c3ccccc3)C2=O)cc1	-0.3	-0.706
COc1ccc(C2=NS(=O)(=O)N(C)C(C(=O)NCC(C)C)=C2)cc1OC	0.5	-0.724
CCn1c(SCC(=O)OC2CCCCC2)nnc1-c1ccc(OC)cc1	-0.7	-1.05
CCOc1ccccc1N(C)S(=O)(=O)c1ccc2c(c1)CCN2C(=O)CCC(=O)O	2.6	-1.75
O=c1[nH]nc(-c2nnc3n2CCCCC3)c2ccccc12	-0.5	/
Cc1cc(C(=O)CN2C(=O)C3CC=CCC3C2=O)c(C)n1CC1CCCO1 (configuration not stated)	2.0	/
CN(C)S(=O)(=O)c1ccc(NC(=O)Cn2c(-c3ccccc3)noc2=O)cc1	0.5	-0.0025
O=c1c2c([nH]n1-c1ccccc1)CCCC2	-2.6	1.65

(list continues)
SMILES	Ab BasE inh	KSHV LANA nucl
Cc1ccc(CNC(=O)C2c3ccccc3C(=O)N(C)C2c2cccs2)o1 (configuration not stated)	0.9	0.361
CC(=O)Oc1c(Cc2ccccc2)c(=O)oc2ccccc12	5.5	/
COc1ccccc1NC(=O)COC(=O)c1ccccc1	2.3	/
Cc1cccc(-n2ncc3c(NCCCN4CCCC4=O)ncnc32)c1	0.0	-0.663
Cn1cc(NC(=O)N2CCCCC2CCO)c2ccccc21 (configuration not stated)	1.1	0.425
CCc1ccc2c(CN3CCC(C(=O)OC)CC3)cc(=O)oc2c1	-2.3	/
COc1ccccc1-n1cc(C(=O)c2ccccc2O)cc(C#N)c1=O	-0.1	/
O=S(=O)(c1cccc(S(=O)(=O)N2CCOCC2)c1)N1CCOCC1	-2.8	-0.113
CCCCNC(=S)Nc1ccc(OC)cc1	-4.0	1.33
CC1=NC(O)(C23CC4CC(CC(C4)C2)C3)C(C)S1 (configuration not stated)	1.8	/
CC(/C=N/Nc1nc2ccccc2[nH]1)c1ccccc1 (configuration not stated)	2.1	/
N#CCSc1nnc(CNc2ccc(Cl)cc2)n1-c1ccccc1	-0.3	1.05
COc1ccc2c(CC(=O)OCC(=O)N3c4ccccc4CC3C)coc2c1 (configuration not stated)	-0.9	/
COc1cc(NC(=O)COc2ccc(Cl)cc2)c(C(=O)O)cc1OC	0.8	-0.905
COc1cc(/C=N/NC(=O)c2cccc(N3CCCC3=O)c2)ccc1O	2.9	-0.063
CCSC1=NC(C)(C)C=C(C)N1	/	-0.928
CCc1ccc(NC(=O)C2=CC=CN3CCS(=O)(=O)N=C23)cc1	3.8	/
Cn1c(SCc2cc(=O)n3ccsc3n2)nnc1-c1ccco1	2.5	-0.377
CC(C)NC(=O)C(C#N)(Cc1ccc(C#N)cc1)Cc1ccc(C#N)cc1	0.4	/
CC(=O)N1CCN(S(=O)(=O)c2cccc(C(=O)OCc3cc(=O)n4cc(Br)ccc4n3)c2)CC1	1.5	/
Cc1cc(SCC(=O)N2CCCC2)n2c(nc3ccccc32)c1C#N	-0.5	/
COC(=O)c1sc(N)c(C(=O)OC)c1COC(=O)CN1CCCCCC1=O	-0.7	/
Cc1ccc(S(=O)(=O)N(C)c2nc3ccccc3nc2Cl)cc1	2.1	/
O=C(CSc1ncccn1)N1N=C(c2ccc(Cl)cc2)CC1c1ccco1 (configuration not stated)	0.5	/
C/C(=N/NC(=O)Cc1cccs1)c1ccc(C)cc1	2.9	0.393
O=C(ON1C(=O)c2cccc3cccc(c23)C1=O)c1ccco1	2.0	0.0365
OCCN1N=C2c3ccccc3CCC2C1c1ccccc1Cl (configuration not stated)	2.1	/
Cc1nn(-c2ccc(F)cc2)c(Cl)c1/C=C/C(=O)OCC(=O)Nc1c(C#N)oc2ccccc12	-1.0	/
CC(C)CCNC(=S)Nc1ccccn1	1.6	-0.553
CN1CCN(c2cc(-c3ccncc3)nc3ccccc23)CC1	/	0.0805
COc1cccc(NS(=O)(=O)c2ccc(-n3cccn3)cc2)c1	-2.1	-0.506
O=S(=O)(N(c1ccc(Br)cc1)C(F)F)C(F)(F)F	0.7	/
Nc1nc2c(ncn2COCCO)c(=O)[nH]1	-3.4&0.8	0.68&2.58&0.927
O=C(CSc1nnc2n1CCCCC2)NCc1ccco1	-0.5	/
O=C(NCCC1=CCCCC1)Nc1ccc(Cl)cc1	0.5	-0.033
Cc1cccc(-c2nnc(SCN3C(=O)c4ccccc4C3=O)n2C)c1	0.9	/
CCOC(=O)c1cnn2c1nc(Sc1cccc(OC)c1)c1ccccc12	1.8	/
Cc1cc(I)ccc1NC(=O)Nc1ccccc1	3.7	-0.756
O=C(Oc1ccc2c(c1)OCO2)C1COc2ccccc2O1 (configuration not stated)	-3.9	/
CC(C)NC(=O)c1nc(-c2cccc(C(F)(F)F)c2)no1	2.0	0.317
N#Cc1ccccc1COC(=O)c1cc[n+]([O-])cc1	-1.8	/
CCCSc1nc(C)c(-c2csc(C(C#N)=C3CCCC3)n2)cc1C#N	-2.7	/
C/C(Nc1nc(-c2cc(C)n(CCc3ccccc3)c2C)cs1)=C(/C#N)C(N)=O	1.9	/
CC1CCC(=O)C(Sc2nc(C3CC3)cc(-c3cccs3)c2C#N)C1 (configuration not stated)	5.2	/
O=C(NCCO[N+](=O)[O-])c1cccnc1	/	-0.185&-0.231
Cc1n[nH]c(=O)c(N)c1-c1cc(-c2ccc(Cl)c(Cl)c2)n[nH]1	1.3	-0.23
C=CCn1cc(F)c(=O)n(CC=C)c1=O	0.1	-0.174
O=C(NCc1ccccc1)N1CCCCC1	0.8	-0.839
COc1ccccc1-c1coc2cc(OC(=O)c3ccco3)ccc2c1=O	-0.7	0.391
C1=CCC(CNCCCn2ccnc2)CC1 (configuration not stated)	-1.3	0.041
Cc1ccc(SCC(=O)OCc2nc3ccccc3c(=O)n2CC#N)cc1	1.3	/
Cc1[nH]c2ccc(-c3nnc(SCc4ccc(F)cc4)o3)cc2c1C	-0.9	-0.272
COc1ccc(N2Cc3cccc(C(=O)NC(C)CCc4ccco4)c3C2=O)cc1 (configuration not stated)	1.1	-0.343
CC(C)C(c1ccc(N(C)C)cc1)c1ccc(N(C)C)cc1	1.3	-0.735
CCn1c(SC)nnc1C1CCN(C(=O)N(c2ccccc2)c2ccccc2)CC1	2.0	-0.958
CCCC(=O)Nc1ccc(C(=O)N2CCc3ccccc32)cc1	0.1	-0.728
O=C(NCC1COC2(CCCC2)O1)c1ccccc1 (configuration not stated)	0.4	-0.657
Cn1c(N)c(C(=O)CN(Cc2ccccc2)Cc2ccccc2)c(=O)n(C)c1=O	-0.2	/
Cc1ccc(-n2c(C)cc(C(=O)Cn3nc(C)c(C)c(C#N)c3=O)c2C)cc1C	4.3	/
CSc1nc(C)cc(NC(N)=O)n1	-1.0	/
CC(C(=O)O)N1C(=O)c2cccc3cccc1c23 (configuration not stated)	4.3	-0.621
Cc1cccc(-c2nc(C#N)c(N(C)C)o2)c1	-0.1	0.712
COC(=O)c1cc(=O)n(-c2cc(Cl)cc(Cl)c2)[nH]1	-1.1	0.062

16 consecutive compounds out of the list so far, for reference:
SMILES	Ab BasE inh	KSHV LANA nucl
O=C(NCc1ccccc1)N1CCCCC1	0.8	-0.839
COc1ccccc1-c1coc2cc(OC(=O)c3ccco3)ccc2c1=O	-0.7	0.391
C1=CCC(CNCCCn2ccnc2)CC1 (configuration not stated)	-1.3	0.041
Cc1ccc(SCC(=O)OCc2nc3ccccc3c(=O)n2CC#N)cc1	1.3	/
Cc1[nH]c2ccc(-c3nnc(SCc4ccc(F)cc4)o3)cc2c1C	-0.9	-0.272
COc1ccc(N2Cc3cccc(C(=O)NC(C)CCc4ccco4)c3C2=O)cc1 (configuration not stated)	1.1	-0.343
CC(C)C(c1ccc(N(C)C)cc1)c1ccc(N(C)C)cc1	1.3	-0.735
CCn1c(SC)nnc1C1CCN(C(=O)N(c2ccccc2)c2ccccc2)CC1	2.0	-0.958
CCCC(=O)Nc1ccc(C(=O)N2CCc3ccccc32)cc1	0.1	-0.728
O=C(NCC1COC2(CCCC2)O1)c1ccccc1 (configuration not stated)	0.4	-0.657
Cn1c(N)c(C(=O)CN(Cc2ccccc2)Cc2ccccc2)c(=O)n(C)c1=O	-0.2	/
Cc1ccc(-n2c(C)cc(C(=O)Cn3nc(C)c(C)c(C#N)c3=O)c2C)cc1C	4.3	/
CSc1nc(C)cc(NC(N)=O)n1	-1.0	/
CC(C(=O)O)N1C(=O)c2cccc3cccc1c23 (configuration not stated)	4.3	-0.621
Cc1cccc(-c2nc(C#N)c(N(C)C)o2)c1	-0.1	0.712
COC(=O)c1cc(=O)n(-c2cc(Cl)cc(Cl)c2)[nH]1	-1.1	0.062

Bioassay records from PubChem.
